From PubChem BioAssay
Menin MLL FP FL: displaces fluorescein MLL peptide from human menin; Fluorescence polarization, fluorescein-MLL peptide displacement from menin; FP activity change, % at 61.4 µM; 290,000 tested, under 10 active; AID 1766; inconclusive = falling polarisation curve, or a change in total fluorescence; inactive = total fluorescence flat and polarisation flat or rising; no compound was filed as active; the % refers to the polarisation; negative = inhibition;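 note: % of control where 0% means no effect; inhibitors lower the polarisation; unlabelled MLL peptide was the positive control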
Starred values were filed as active, the others as inactive; ? = inconclusive; & = joins results of further samples; [ ] = another dose, or the depositor's remark. Only part of the results is shown, so the mix of outcomes need not match the whole.

Menin MLL FP FL,Compound
-1.9,CC(=O)SC1CC2=CC(=O)CC[C@]2(C)C2CC[C@@]3(C)[C@@H](CC[C@@]34CCC(=O)O4)C12 (stereo not given in full)
2.1,Cc1cc2oc(=O)cc(Cn3nnc(-c4ccc(Cl)cc4)n3)c2cc1C(C)C
?,O=C1C=CC(=O)c2c(O)c(Cl)c(Cl)c(O)c21
0.2,Cn1c(=O)c(-c2ccc(Cl)cc2)nc2cnc(Nc3ccccc3)nc21
1.2,COc1ccc(-n2c(=O)c(C)nc3cnc(N4CCOCC4)nc32)cc1
3.9,O=C(O)CC1CCCc2ccccc2C1O (stereo not given)
-3.5,O=C(Nc1ccccc1)N1CC2(CCN(C(=O)c3cc(C(F)(F)F)cc(C(F)(F)F)c3)CC2)C1
0.1,Nc1nc(=O)n(C2OC(CO)C(O)C2O)cc1Cl (stereo not given)
4.6,COc1cc([C@@H]2CC(=O)c3c(O)cc(O)cc3O2)ccc1O
1.7,CCCC(=O)OC1(C(=O)CO)CCC2C3CCC4=CC(=O)CCC4(C)C3C(O)CC21C (stereo not given)
3.2,Cc1ccccc1-c1ccc2ncnc(NCc3cccnc3)c2c1
1.9,O=C(Nc1ccccc1)N1CC[C@@]2(CCCN(C(=O)c3cnccn3)C2)C1
?,Cc1nc2cnc(N3CCOCC3)nc2n(Cc2ccc(F)cc2)c1=O
-2.0[11.7 µM],OCC1OC(c2ccc3c(c2)OCO3)C=CC1Oc1ccc(C2CCCC2)cc1 (stereo not given)
-0.3,Brc1ccc(-c2nn3c(-c4ccncc4)nnc3s2)o1
-2.2,Cc1nc2ccccc2c(=O)n1/N=C1\C(=O)N(C)c2ccccc21
-8.0,COc1ccc2nc3cc(Cl)ccc3c(Nc3cc(CN4CCCC4)c(O)c(CN4CCCC4)c3)c2n1
-1.8,Cc1c(O)cc(O)c2c(=O)c(-c3ccc(O)cc3)coc12
2.6,CC(C)OC(=O)Nc1ccc2nc(-c3cscn3)[nH]c2c1
1.0,N=C(N)N1Cc2ccccc2C(O)C1 (stereo not given)
3.7[11.7 µM],O=C(O)C1Cc2c([nH]c3ccccc23)C(c2ccccc2)N1 (stereo not given)
-5.5,COCCn1c(=O)c(-c2ccc(OC)cc2)nc2cnc(Oc3ccccc3)nc21
-1.7,CCCn1c(C)nc2c(N(CCN(CC)CC)CCN(CC)CC)nc(C)nc21
-29.6,CCCCCN=c1ccn(Cc2ccccc2)c2ccccc12
-3.1,O=C(CSC1=NC(=O)C(Cc2ccccc2)C(=O)N1)Nc1ncccn1 (stereo not given)

In another format: entries from further up
molecule	Menin MLL FP FL
Nc1nc(=O)n(C2OC(CO)C(O)C2O)cc1Cl (stereo not given)	0.1
COc1cc([C@@H]2CC(=O)c3c(O)cc(O)cc3O2)ccc1O	4.6
CCCC(=O)OC1(C(=O)CO)CCC2C3CCC4=CC(=O)CCC4(C)C3C(O)CC21C (stereo not given)	1.7

Remaining list, next part.
Menin MLL FP FL,Compound
5.2,CC(C)(C)OC(=O)NCCCCC1=CC2=CC(=O)C(C)(OC(=O)CCc3ccccc3)C(=O)C2=CO1 (stereo not given)
-3.4,Oc1cccc(O)c1O
0.4,Cc1ccccc1-c1cc(N2CCNCC2)ncn1
?,CCN1C/C(=C\c2cccc(C)c2)c2nc3ccccc3c(C(=O)O)c2C1
-2.4,O=c1[nH]cc(N=Cc2cc([N+](=O)[O-])ccc2O)c(=O)[nH]1
-1.1,CC(=O)Nc1ccc(NC(=O)Cn2cc3c(n2)CCC(C)C3)cc1 (stereo not given)
-4.2[11.7 µM],CC#CCN1c2ccccc2[C@]23C[C@@H](C(=O)OC)N(C(=O)COCc4ccccc4)C2=NC(C(=O)OC)=C(C(=O)OC)[C@H]13
?,Cc1nc(NC2=NCN(Cc3ccco3)CN2)nc2ccccc12
0.6,O=C(C1=C(O)C(=O)N(CCCN2CCOCC2)C1c1ccncc1)c1cc2ccccc2o1 (stereo not given)
-6.7,COc1ccccc1-c1cncnc1NCc1cccnc1
?,COc1cccc2c1C(=O)c1c(O)c3c(c(O)c1C2=O)C[C@@](O)(C(=O)CO)C[C@@H]3O[C@@H]1C[C@H](N)[C@H](O)[C@H](C)O1
-1.5,COC(=O)[C@@]1(Cc2ccc(OC)cc2)[C@H]2c3cc(C(=O)N(C)C)n(CCO)c3C[C@H]2CN1C(=O)c1ccccc1
2.8,O=c1cnc2cnc(Oc3cccc(Cl)c3)nc2n1C1CC1
-1.5,COc1ccccc1N1CCN(C(=O)COc2ccc(S(=O)(=O)NC(C)(C)C)cc2)CC1
?,O=C(c1ccccc1)[C@H]1[C@H](c2ccccc2)[C@@]2(N=C(c3ccccc3)OC2=O)C2c3ccccc3C=NN21 (stereo not given in full)
1.2,CC1(C)C[C@](C)(C(=O)c2ccccc2)C=C1c1ccccc1
-0.8,c1ccc(COC[C@H]2CO2)cc1
7.2,COc1ccc(N2CCn3c2nc2c3c(=O)n(CCN3CCOCC3)c(=O)n2C)cc1
?,CC1(OC(=O)c2cnc3ccccc3n2)C(=O)C=C2C=C(C3CC3)OC=C2C1=O (stereo not given)
3.0,CCCC[C@@H]1C[C@H]1C(NC(=O)c1ccccc1)c1ccc(C(=O)OC)cc1 (stereo not given in full)
1.0,COc1ccccc1/C=C/C=N/NC(=O)c1ccc2nc[nH]c2c1
-1.1[11.7 µM],C/C(CCC(=O)OC[C@@H]1O[C@H](C#Cc2ccccc2)C=C[C@@H]1Oc1ccc(C)cc1)=N/O[C@@H](C)c1cn([C@H]2COC[C@H]2O)nn1
-2.3,CSCC[C@H](NC(=O)[C@H](Cc1c[nH]c2ccccc12)NC(=O)CNC(=O)[C@H](Cc1ccc(O)cc1)NC(=O)[C@H](C)NC(=O)[C@H](CCC(=O)O)NC(=O)[C@H](CCC(=O)O)NC(=O)[C@H](CCC(=O)O)NC(=O)[C@H](CCC(=O)O)NC(=O)[C@H](CCC(=O)O)NC(=O)[C@H](CC(C)C)NC(=O)[C@H](Cc1c[nH]c2ccccc12)NC(=O)[C@@H]1CCCN1C(=O)CNC(=O)[C@@H]1CCC(=O)N1)C(=O)N[C@@H](CC(=O)O)C(=O)N[C@@H](Cc1ccccc1)C(=O)NCC(=O)O
1.3,CC(C)CN1CCCC2(CCN(S(=O)(=O)c3ccccc3)CC2)C1
0.1,O=C1[C@@H]2Cc3c([nH]c4ccccc34)[C@@H](c3ccccc3)N2C(=O)[C@@H]2Cc3c([nH]c4ccccc34)[C@@H](c3ccccc3)N12

Reprinted at random: 6 records from the list
Menin MLL FP FL,Compound
7.2,COc1ccc(N2CCn3c2nc2c3c(=O)n(CCN3CCOCC3)c(=O)n2C)cc1
3.0,CCCC[C@@H]1C[C@H]1C(NC(=O)c1ccccc1)c1ccc(C(=O)OC)cc1 (stereo not given in full)
-1.5,COc1ccccc1N1CCN(C(=O)COc2ccc(S(=O)(=O)NC(C)(C)C)cc2)CC1
2.8,O=c1cnc2cnc(Oc3cccc(Cl)c3)nc2n1C1CC1
?,Cc1nc(NC2=NCN(Cc3ccco3)CN2)nc2ccccc12
0.4,Cc1ccccc1-c1cc(N2CCNCC2)ncn1

Carrying on.
Menin MLL FP FL,Compound
-7.1,COCC(=O)N1CCC2(CC1)CN(c1ccccc1)C2
0.4,CCOc1ccc(C[C@H]2NC(=O)CCSSC[C@@H](C(=O)N3CCC[C@H]3C(=O)N[C@@H](CCCN)C(=O)NCC(N)=O)NC(=O)[C@H](CC(N)=O)NC(=O)[C@H]([C@@H](C)O)NC(=O)[C@H]([C@@H](C)CC)NC2=O)cc1
2.3,c1ccc(CNc2ncncc2-c2cccnc2)cc1
-1.5,CCC/C=C(\CCC)C(NS(=O)(=O)c1ccc(Cl)cc1)c1ccccc1 (stereo not given)
1.9[24.8 µM],CCN[C@@H]1CN(CCCOC)S(=O)(=O)c2sc(S(N)(=O)=O)cc21
1.2,CN(C)c1ccc(/C=N/NC(=O)CN2CCN(c3ccc(F)cc3)CC2)cc1
0.5,COCCNc1ccnc(-c2ccccc2C)n1
-18.4[11.7 µM],C[C@H]1COC(=O)[C@H]2CCCN2C(=O)[C@@H](C)COC(=O)[C@H]2CCCN2C1=O
-21.2,Clc1cccc2c1CN(C1=NCCN1)C2
-5.3,Cc1noc(C)c1-c1cncnc1N(C)Cc1ccco1
8.9,COc1cc2c(cc1OC)C(c1cc3cccc(C)c3[nH]c1=O)N(C(=O)c1ccco1)CC2 (stereo not given)
0.7,O=C(O)/C(=C/c1c(C(=O)O)[nH]c2cc(Cl)cc(Cl)c12)c1ccccc1
0.0,COC(=O)/C(=C1\OC(=O)C(c2ccccc2)C1=O)c1ccccc1 (stereo not given)
0.6[11.7 µM],CCCCn1c(C)cc2c(c1=O)C1O[C@](c3ccsc3)(Cc3cc(OC)c(OC)cc31)O2
?,N[C@H](Cn1ccc(=O)n(Cc2ccccc2C(=O)O)c1=O)C(=O)O
9.1,COc1ccc(-n2c(=O)c(-c3ccc(F)c(F)c3)nc3cncnc32)cc1
2.4,COc1ccc(C2=Nn3c(nnc3-c3ccccc3O)SC2)c(OC)c1
3.6,COc1ccccc1-c1cc(C(=O)N2CCc3ccccc3C2)c2ccccc2n1
2.0,CN(C)CCc1c[nH]c2ccc(CS(=O)(=O)N3CCCC3)cc12
-2.8,CC(=O)N1CCC2(CCCN(C(=O)Nc3cccc(F)c3)C2)CC1
-0.4[11.7 µM],C/C(CCN1CCCc2nc(C)c(C)cc21)=N\OC[C@@H](C)[C@H](OCc1ccccc1)C(C)C
0.7,C=Cc1ccc(S(=O)(=O)O)cc1
-6.1,COCCNc1ncnc2ccc(-c3cccnc3)cc12
-2.7[24.8 µM],C[C@@]12C(=O)OC(=O)[C@]1(C)[C@H]1CC[C@@H]2O1
-3.1&-3.2,Cc1cc(NC(=O)Nc2ccc(N(C)C)cc2)c2cc(F)cc(F)c2n1
6.4,COc1ccc2cc(/C(C)=N/NC(=S)Nc3cc(S(=O)(=O)N4CCOCC4)ccc3N3CCOCC3)ccc2c1
-0.6,CN(C)c1ccc(-c2ccc3ncnc(N4CCNCC4)c3c2)cc1
?,N#CC1=C(N)C(C#N)(C#N)C(c2cccnc2)C2CCCC=C12 (stereo not given)
0.2,O=C1C=CC(=O)N1c1ccc(Sc2ccc([N+](=O)[O-])cc2)cc1
?,Nc1c(C(=O)Nc2ccccc2)sc2nc(-c3cccnc3)ccc12
?,O=c1cc(-c2ccc(O)c(O)c2)oc2cccc(O)c12
?,Cc1nc2cnc(N3CCN(C)CC3)nc2n(C2CC2)c1=O
1.8,Cc1ccc(-n2c(SCC(=O)N3CCCC3)nc3c(c2=O)SCC3)cc1
2.7,COc1ccc2[nH]cc(CCNc3ncnc4ccc(-c5ccc6c(c5)OCO6)cc34)c2c1
-2.5,COc1ccccc1C1=Nn2c(nnc2-c2ccccc2OC)SC1
-1.4,O=C(Oc1cccc(O)c1)C1CCCCC1
1.0,COc1cccc(-c2nccc(NCc3ccccc3OC)n2)c1
0.4,CCOC(=O)c1cnc(-n2nc(C)cc2C)nc1Nc1ccccc1OC
-0.3,CC[C@H](C)[C@H](NC(=O)[C@H](C)NC(=O)CNC(=O)[C@H](CCCN=C(N)N)NC(=O)[C@H](C)NC(=O)[C@H](CC(C)C)NC(=O)[C@H](CCC(=O)O)NC(=O)[C@H](CC(C)C)NC(=O)[C@H](C)NC(=O)[C@@H](N)CCC(=O)O)C(=O)N[C@@H](Cc1ccccc1)C(=O)N[C@@H](CCC(N)=O)C(=O)N[C@@H](C)C(=O)O
4.2,O=c1cc(-c2cccc(-c3ccc(C(F)(F)F)cc3)c2)c2cc3c(cc2o1)OCO3
1.7,CSCC[C@@H]1NC(=O)[C@@H](NC(=O)[C@H](CCCNC(=N)N)NC(=O)[C@H](CC(C)C)NC(=O)[C@H](CCSC)NC(=O)[C@H](CC(=O)O)NC(=O)[C@H](Cc2ccccc2)NC(=O)[C@@H](N)CC(=O)O)CSSC[C@@H](C(=O)N[C@@H](Cc2c[nH]c3ccccc23)C(=O)N[C@@H](CCC(N)=O)C(=O)N[C@H](C(=O)O)C(C)C)NC(=O)[C@@H]2CCCN2C(=O)[C@H](CCCNC(=N)N)NC(=O)[C@H](Cc2ccc(O)cc2)NC(=O)[C@H](C(C)C)NC(=O)[C@H](CCCNC(=N)N)NC(=O)CNC(=O)[C@H](CC(C)C)NC1=O
0.0,CCCCCCCCC1OC1CCCCCCCC(=O)O (stereo not given)
1.5,Cc1c(C)c2c(c(C)c1O)CC[C@@](C)(CCC[C@@H](C)CCC[C@@H](C)CCCC(C)C)O2
-5.0,COc1ccc(NC(=O)N2CCCC3(CCNCC3)C2)cc1
-3.4[11.7 µM],COC(=O)C/C=C\[C@@H](C)[C@@H](/C=N\OC[C@@H](C)[C@H](OCc1ccccc1)C(C)C)NS(=O)(=O)c1ccc(C)cc1
0.1[11.7 µM],COc1ccc(/C=C/N(CCc2ccc(OC)c(OC)c2)C(=O)c2ccccn2)cc1
-1.7,Cc1cnc(CNc2nc(-c3ccc4c(c3)OCO4)nc3ccccc23)cn1
0.5&0.9,COC(=O)[C@@]1(Cc2ccc(OC)cc2)[C@H]2c3cc(C(=O)N4CCCC4)n(Cc4ccc(C)o4)c3C[C@H]2CN1C(=O)c1ccccc1
2.1[24.8 µM],C[C@@]12C=CC(=O)C=C1CC[C@H]1[C@H]3CC[C@](O)(C(=O)CO)[C@]3(C)CC(=O)[C@@H]12
-3.1,COC(=O)c1c(N2C(=O)[C@H]3[C@@H](C2=O)[C@]2(C(=O)Nc4ccccc42)N2CCC[C@@H]32)sc(C)c1C

Carrying on:
Menin MLL FP FL,Compound
8.6,C[C@@]12C=Cc3occc3[C@H]1CC[C@@]13C[C@@H](CC[C@H]12)[C@@](O)(CO)C3
-0.8,C1OCOCO1
0.9,CN(C)CCNC(=O)Cc1c(C(=O)O)n(C)c2ccccc12
-1.4,Cc1ccc2nc(-c3ccc(N4C(=O)CC(N5CCCC(C)C5)C4=O)cc3)sc2c1 (stereo not given)
